# Source: PubChem
# YopH inh: YopH tyrosine phosphatase inhibitors, primary screen, biochemical, fluorescence Ex485/Em525 | YopH tyrosine phosphatase [Yersinia enterocolitica] | inhibition, %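 (about 10 µM by stock and volumes)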 | actives 0.16% (n = 140,000);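 active = inhibition of 50% or more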;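 note: controls were vehicle for no effect and minimum signal wells for full effect; inactives centre near -20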
# Arbovirus anti: antivirals against arbovirus infection, primary screen, cell-based, full library, 10K replicate subset. actives 0.37% (n = 200,000). arbovirus infection cell-based antiviral screen. AID 1251, 2008. inhibition, % at 10 µM;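 active = inhibition from about 30%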;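 note: bluetongue infection of BSR cells; cell survival read as ATP light after 72 h; 0% = infected wells without compound and 100% = uninfected wells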
# Mtb H37Rv: M. tuberculosis H37Rv growth inhibitors, H37Rv strain (AID 1626). inhibition, % at 10 µM, or IC50 in µM where a hit was titrated. actives 0.95% (n = 220,000). M. tuberculosis H37Rv growth inhibition; higher % means a stronger effect;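 active = confirmed in a dose series; inconclusive = inhibition above 80% but not taken into the dose series; inactive = below 80% or under 30% at every dose of the series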;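 note: bacteria incubated seven days before Alamar blue readout; 0% = bacteria only wells and 100% = bacteria with antibiotic wells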
# RecA splice inh: Mtb RecA intein splicing inhibitors, primary screen, biochemical, fluorescence, HTS | Protein RecA (Mycobacterium tuberculosis (strain ATCC 25618 / H37Rv)), P9WHJ3 | cell-free RecA intein splicing | inhibition, %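 (about 9 µM by stock and volumes)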 | actives 0.75% (n = 290,000); in the data active = inhibition above about 30%; inconclusive = no clear call, values can overlap the other calls;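 note: 0% = vehicle wells and 100% = reference inhibitor control wells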
# Target sequence (P9WHJ3 whole entry, looked up, canonical isoform): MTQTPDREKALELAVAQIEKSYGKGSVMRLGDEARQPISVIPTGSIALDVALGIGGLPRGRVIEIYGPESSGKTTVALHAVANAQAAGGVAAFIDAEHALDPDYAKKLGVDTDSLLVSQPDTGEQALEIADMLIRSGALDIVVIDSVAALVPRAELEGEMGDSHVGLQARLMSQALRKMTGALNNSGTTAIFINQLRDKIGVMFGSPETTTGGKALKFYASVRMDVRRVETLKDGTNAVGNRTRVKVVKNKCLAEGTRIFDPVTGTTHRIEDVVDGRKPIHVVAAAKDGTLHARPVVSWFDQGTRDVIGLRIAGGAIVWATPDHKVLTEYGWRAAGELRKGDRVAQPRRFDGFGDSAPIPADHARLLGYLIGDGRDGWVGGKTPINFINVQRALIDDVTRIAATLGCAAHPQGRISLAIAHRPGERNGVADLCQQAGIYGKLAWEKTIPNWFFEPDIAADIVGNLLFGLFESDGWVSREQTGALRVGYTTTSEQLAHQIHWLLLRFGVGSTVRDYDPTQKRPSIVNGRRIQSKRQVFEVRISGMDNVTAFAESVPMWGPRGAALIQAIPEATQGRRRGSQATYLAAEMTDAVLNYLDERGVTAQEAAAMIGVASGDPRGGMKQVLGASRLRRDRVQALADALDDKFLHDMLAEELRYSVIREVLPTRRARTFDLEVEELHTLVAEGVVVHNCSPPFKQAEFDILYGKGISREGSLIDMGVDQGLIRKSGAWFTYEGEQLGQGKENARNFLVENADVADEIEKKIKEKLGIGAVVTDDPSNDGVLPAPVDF
# Mtb bLac sens: beta-lactam sensitization of Mtb H37Rv, H37Rv. AID 434955, 2010. inhibition, % at 25 µM. actives 0.27% (n = 330,000). M. tuberculosis H37Rv growth with meropenem, percent inhibition; hits of this screen are not shown here;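 active = about 74% or more and at least 40 points above the plate without the antibiotic, then above 30% in a dose series; inconclusive = first-round hits that could not be retested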;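 note: growth measured after seven days incubation then overnight dye step; 0% = bacteria only wells and 100% = bacteria with antibiotic; twin plates without the antibiotic show which effects depend on it; some results filed as inactive read as strong as hits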
# Arbovirus anti repeat: also measured in Arbovirus anti; calls as there; inhibition, %; measured here: 10K subset replicate screen; many hits read low in the repeat;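 first of two repeat runs on a subset; 0% = infected and 100% = uninfected wells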
# * hit, by the source's call; ? = inconclusive; / = not tested or not shown. An excerpt, so the mix of outcomes need not match the whole.
# Preview, 7 compounds:
SMILES,YopH inh,Arbovirus anti,Mtb H37Rv,RecA splice inh,Mtb bLac sens,others
COc1cc2c3c(c1OC)C1(C=CC(=NO)C=C1)CC3N(C(C)=O)CC2 (centres undefined),-25,2,-10%,-3.2,-4,
O=C(Oc1ccccc1Cl)c1ccc(N2CCOCC2)c([N+](=O)[O-])c1,-22,2,4.1µM*,10,97,
Cc1ccc2nc3sc(C(=O)N4CCCc5ccccc54)c(N)c3cc2c1,-14,-32,27%,0.8,-2,
CC1(C)CC(=O)C2=C(C1)NCN(Cc1ccccc1)C2,-30,-2,0%,-0.2,7,
Cc1cc(C)nc(Nc2ccc(Br)cc2C(=O)O)n1,/,/,/,-0.4,8,
Cc1nn(CCCC(=O)O)c(C)c1[N+](=O)[O-],/,2,-3%,0.0,-8,
O=C(CCC(=O)Nc1ccccc1Cl)NNC(=S)Nc1ccccc1C(F)(F)F,/,/,/,-0.9,-4,

# The listing, repeating the preview:
SMILES,YopH inh,Arbovirus anti,Mtb H37Rv,RecA splice inh,Mtb bLac sens,others
COc1cc2c3c(c1OC)C1(C=CC(=NO)C=C1)CC3N(C(C)=O)CC2 (centres undefined),-25,2,-10%,-3.2,-4,
O=C(Oc1ccccc1Cl)c1ccc(N2CCOCC2)c([N+](=O)[O-])c1,-22,2,4.1µM*,10,97,
Cc1ccc2nc3sc(C(=O)N4CCCc5ccccc54)c(N)c3cc2c1,-14,-32,27%,0.8,-2,
CC1(C)CC(=O)C2=C(C1)NCN(Cc1ccccc1)C2,-30,-2,0%,-0.2,7,
Cc1cc(C)nc(Nc2ccc(Br)cc2C(=O)O)n1,/,/,/,-0.4,8,
Cc1nn(CCCC(=O)O)c(C)c1[N+](=O)[O-],/,2,-3%,0.0,-8,
O=C(CCC(=O)Nc1ccccc1Cl)NNC(=S)Nc1ccccc1C(F)(F)F,/,/,/,-0.9,-4,
CSc1ccc(/C=C(/NC(=O)c2ccccc2)C(=O)NCCCn2ccnc2)cc1,/,/,/,0.2,1,
O=C(NCCc1ccccc1)c1cc(-c2ccccc2)c(N2CCOCC2)s1,/,/,/,0.8,7,
O=C(Nc1ccccc1N1CCCCC1)c1cccc([N+](=O)[O-])c1,/,-5,-2%,12,1,
COc1ccc(/C=N\NC(=O)c2ccc(F)cc2)cc1COc1cc(F)ccc1[N+](=O)[O-],/,/,/,0.6,2,
O=C(NCc1cccnc1)C(=O)Nc1ccc([N+](=O)[O-])cc1,/,6,9%,-0.1,-5,
C/C=C\C(=O)Nc1cccc(C2=NOC3(C2)C[C@H](C(N)=O)N(C(=O)Cc2ccc([N+](=O)[O-])cc2)C3)c1 (some centres undefined),/,/,16%,1.0,-11,
COc1cccc(NC(=O)c2ccccc2NS(C)(=O)=O)c1,-36,6,-4%,0.9,0,
COc1ccc(CNC(=O)[C@H](C)NC(=O)C2CCN(C(=O)[C@@H](N)CCSC)CC2)cc1,/,/,/,-0.8,-2,
O=C(CCn1nc(-c2ccccc2)c2ccccc2c1=O)N1CCN(c2ccccc2)CC1,-45,-25,-4%,4.9,-5,
O=C(NC1CCCCC1)C(c1cccnc1)N(CCc1ccccc1)C(=O)Cc1cccs1 (centres undefined),-28,-1,7%,-0.2,10,
O=C(CSCc1cccc(Cl)c1)N1CCN(Cc2ccc3c(c2)OCO3)CC1,-9,0,2%,5.3,-5,
COc1cc(-c2[nH]nc3c2C(c2ccco2)C(C#N)=C(N)O3)cc(OC)c1OC (centres undefined),-37,0,7%,79*,-8,
c1ccc(-c2nc(NCC3CCCO3)c3ccccc3n2)nc1 (centres undefined),-36,-9,3.1µM*,-0.5,83,
Cc1ccc(NC(=O)c2ccc(C)c(S(=O)(=O)N3CCOCC3)c2)nc1,/,/,/,-0.8,7,
Cc1csc(NC(=O)CSc2ccccc2F)n1,/,3,0%,2.0,2,
O=C(CSc1ccc2c(c1)OCCO2)NCCN1C(=O)CSC1=O,-36,8,-1%,1.1,-4,
O=S(=O)(NCc1cccnc1)c1ccc(Br)c2ccccc12,/,/,/,1.5,1,
CC(=O)c1ccc(NC(=O)Nc2cccnc2)cc1,/,/,/,-0.6,3,
Cn1c(N)c(C(=O)COC(=O)c2cc(-c3ccccc3)nc3ccccc23)c(=O)n(Cc2ccccc2)c1=O,-38,0,9%,/,46,
CCCCN(C(=O)Cn1nnc2ccccc21)C(C(=O)NCCOC)c1ccc(OC)cc1 (centres undefined),-27,-2,7%,2.0,-5,
COc1ccc(C(=O)Nc2cc(=O)n(C)c(=O)n2C)cc1,/,12,-5%,3.1,-4,
CCn1c(COc2ccc(=O)n(-c3ccccc3)n2)nnc1SCc1ccccc1,-3,7,-1%,4.1,2,
O=C(C1CCN(S(=O)(=O)c2c(Cl)cccc2Cl)CC1)N1CCCCCCC1,/,/,/,-0.3,-6,
Cc1cc(C)n2c(C)nnc2c1,/,/,-4%,0.6,/,
CC(C)(O)C#Cc1ccc(C(=O)N2CCCC2C(=O)O)s1 (centres undefined),-4,1,-3%,2.4,-5,
O=C(Nc1ccccc1)N1CCCCC1c1cccnc1 (centres undefined),-21,-4,-11%,-3.1,-12,
Cc1cc(NC(=NC2CC2)c2ccccc2F)n(-c2ccccc2)n1,/,-2,-4%,-0.2,-10,
COc1ccc(-n2c(C)cc(/C=C3\SC(=S)N(Cc4ccco4)C3=O)c2C)cc1,-7,3,4%,-1.9,1,
CCOc1ccc(-c2nnn(CC(=O)NCc3ccc(F)cc3)n2)cc1OCC,-3,-4,-10%,-0.5,-4,
Cn1nc([N+](=O)[O-])nc1Sc1nnc(-c2ccccc2)o1,-74,-7,?,32*,100,
Cc1ccc(/C=N/c2sc(Cc3ccccc3)c(C)c2C(N)=O)o1,-2,-26,4%,-1.4,-2,
Cc1ccc(Cn2nnc3c(=O)[nH]c(C4CCCN(S(=O)(=O)c5ccc(F)cc5)C4)nc32)cc1 (centres undefined),/,/,/,-5.0,-13,
CC1Oc2ccccc2N(Cc2ccccc2Cl)C1=O (centres undefined),-35,-9,6%,1.0,26,
COc1cc(CN(C)CC2CCCN(CCc3ccccc3F)C2)cc(Cl)c1OC (centres undefined),/,/,/,-5.2,20,
CC1CC(C)CN(C(=O)Cn2c(=O)n(CCCCC(=O)NCc3ccco3)c(=O)c3ccccc32)C1 (centres undefined),-34,-6,1%,-4.9,2,
O=C(Nc1ccc(/C=C/c2nc3ccccc3o2)cc1)c1cccc(C(F)(F)F)c1,-25,-3,0%,0.7,23,
COc1ccc(NC(=O)CN(C)S(=O)(=O)c2cccc3nsnc23)cc1OC,-4,5,6%,1.7,-4,
COc1ccc(C2=CC(=O)CC(c3ccc(OC)cc3)C2)cc1 (centres undefined),/,9,8%,2.9,88,
CC(=O)O[C@H]1C[C@@]2(C)[C@@H](C[C@@H](O)[C@H]3[C@@]4(C)CC[C@@H](O)[C@@H](C)C4CC[C@@]32C)/C1=C(\CCC=C(C)C)C(=O)O (some centres undefined),-27,-34,25%,4.2,98,
O=C(c1cnn2c(C(F)(F)F)cc(-c3ccccc3)nc12)N1CCCCC1c1cccnc1 (centres undefined),/,-10,17%,0.7,21,
COc1cc(NC(=O)c2c(F)c(F)c(F)c(F)c2F)c(OC)cc1Cl,26,-3,0.74µM*,5.3,100,
O=C(NCCO)c1ccc(Oc2ccc(C(F)(F)F)cc2[N+](=O)[O-])cc1,/,-6,2%,-0.6,-3,
CN(C)c1ccc(-c2nnc(SCC3CCCO3)n2C)cc1 (centres undefined),/,0,1%,-1.8,-2,
COc1ccc(C(=O)NC2CCCCCC2)cc1S(=O)(=O)N1CCCc2ccccc21,-6,-4,1%,0.3,-8,
CSc1ccccc1OCc1cc(C(=O)NCc2ccc(C)s2)no1,/,/,/,1.9,-4,
Cc1ccc(S(=O)(=O)N/N=C\c2cn(CC(N)=O)c3ccccc23)cc1C,/,/,/,-2.3,3,
CC1CC(C)CN(C(=O)COC(=O)c2cc3ccccc3cc2O)C1 (centres undefined),-34,8,0.59µM*,-1.5,99,
COC(=O)[C@H](CC(C)C)NC(=O)c1cc2c(cn1)[nH]c1ccccc12,/,/,/,-1.5,92,
CCOc1ccc(NC(=O)CN(C)C(=O)c2cccnc2Sc2ccc(Cl)cc2)cc1OCC,/,/,/,0.9,-3,
CCn1c(=S)sc2c(=O)n(CC(=O)Nc3ccccc3C(F)(F)F)c(C)nc21,/,/,/,0.7,-1,
O=C1/C(=C/c2cccs2)Sc2ccccc21,-25,-6,27%,6.2,1,
CC(C)Oc1cccc(C(=O)C2CCCN(Cc3ccc(Oc4ncccn4)cc3)C2)c1 (centres undefined),/,-7,11%,0.9,-4,
OCC1(Cc2ccccc2)CCCN(Cc2cn[nH]c2-c2ccccc2)C1 (centres undefined),/,5,-5%,-1.5,-2,

# Additional compounds:
SMILES,YopH inh,Arbovirus anti,Mtb H37Rv,RecA splice inh,Mtb bLac sens,others
CC(C)CCOP(=O)(c1ccc(N(C)C)cc1)C(Nc1ccccc1)c1ccc(N(C)C)cc1 (centres undefined),/,/,-2%,1.7,-1,
CCOC(=O)N1CCC(=NNC(=O)Cn2ccc(C(F)(F)F)n2)CC1,/,11,-5%,-2.9,-11,
CC(C)c1ccc(NC2CCCN(C(=O)CN3CCCC3=O)C2)cc1 (centres undefined),/,/,/,-0.5,8,
COC(=O)c1ccc(NC(=O)CCOc2ccccc2)cc1,/,15,24%,-0.9,9,
c1coc(CN2CN=C(Nc3nc4ccccc4s3)NC2)c1,-28,-2,4%,-2.6,0,
Cc1ccc(C(=O)Nc2nccs2)cc1,/,-6,-8%,1.7,-1,
COc1cccc2c(=O)c(C/C=C(/C)Cl)c(C)[nH]c12,-23,6,6%,-4.0,16,Arbovirus anti repeat=15
O=C(CN1CCCCC1)Nc1ccc(S(=O)(=O)N2CCOCC2)cc1,-5,7,-3%,-4.0,-3,
Cc1c(C(=O)OCC(=O)N(C)c2ccccc2)cccc1[N+](=O)[O-],/,8,2%,-2.3,4,
COc1cnc(-c2ccccn2)nc1N(C)c1ccccc1,/,/,/,6.7,73,
COC(=O)C1=C(Nc2ccc(C)cc2)C=C(C)C(C(=O)OC)C1c1cccc(OC)c1 (centres undefined),-10,-19,0%,5.3,-8,
CN1c2ccc([N+](=O)[O-])cc2C(C)(C)C12C=Cc1cc(C(=O)O)ccc1O2 (centres undefined),/,/,/,4.7,1,
O=C(CSc1ccc(F)cc1)NCCc1ccc(Cl)cc1,/,/,/,-1.0,-4,
CC1CC(C)CN(C(=O)C2CCN(S(=O)(=O)c3cccs3)CC2)C1 (centres undefined),/,/,/,-0.9,2,
CCOc1cc(NC(=O)C2CCCO2)c(OCC)cc1NC(C)=O (centres undefined),2,-9,-6%,-1.1,-11,
CCOc1ccc2nc(NC(=O)c3cccnc3)sc2c1,-25,-7,3%,-1.3,-2,
CCOC(=O)Cc1c(C)nc2c(C#N)c(C)nn2c1C,-24,5,-8%,-1.3,0,
CC(Oc1ccc2c(-c3ccccc3)cc(=O)oc2c1)C(=O)NCCN1CCOCC1 (centres undefined),/,/,/,-3.3,-9,
O=C(OCc1ccc(F)cc1)c1cc(S(=O)(=O)N2CCCCC2)ccc1N1CCOCC1,/,/,/,-0.6,-7,
CCCN1C2CCCC1CC(NC(=O)c1cc(OC)cc(OC)c1)C2 (centres undefined),/,/,/,-2.8,-1,
O=C(c1ccc(S(=O)(=O)NCC2CCCO2)cc1)N1CCN(c2ccccc2)CC1 (centres undefined),/,0,-11%,-6.3,1,
CCc1ccc(NC(=O)CN(c2ccc(OC)cc2)S(=O)(=O)c2c(C)nn(C)c2C)cc1,/,/,/,2.1,-2,
COc1ccc(Cc2nc(-c3ccccc3)no2)cc1,-88,-1,9%,3.2,-4,
O=C1C2C3C=CC(C3)C2C(=O)N1CNc1ccccc1 (centres undefined),4,-4,-8%,2.3,2,
O=C(Cn1c(C(F)(F)F)nc2ccccc21)c1ccccc1,-7,6,5%,-6.3,7,
CCC(=O)N(C)CCc1cc2c(c(OC)c1/C=N/NC(=O)[C@H]1C[C@@H]1c1ccccc1)OCO2,/,/,-2%,-5.2,-1,
C[C@@H]1CN=C2N(CCNC(=O)CCC3CCCCC3)[C@H](Cc3ccc(O)cc3)CN21,/,1,-4%,1.8,-10,
COc1cccc(OC)c1C(=O)NC(=S)Nc1ccc2c(c1)Cc1ccccc1-2,-9,9,-2%,3.5,-9,
N/C(=N\OC(=O)CCCOc1ccc(Cl)cc1Cl)c1ccccn1,/,-2,9%,2.5,10,
